# total CFTR – compounds raising F508del-CFTR protein level – cell-based, HeLa F508del-CFTR, immunofluorescence, viability, primary screen (AID 1224863). HeLa F508del-CFTR, immunofluorescence total CFTR, 24 h; by the record results were divided by relative cell number; some inactives read as strong as hits. calls, or highest fold increase where a dose series was run. 10,000 compounds, 0.1% hits; in the data nearly all actives have a first-pass fold increase above 1.5; a few of its hits are not listed in these tables;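 note: total CFTR protein by anti-CFTR immunofluorescence in fixed cells; first pass at 25 µM or 10 µg/mL by library and series up to twice that; 1 = untreated cells; first-pass hits also needed half or more of the cells alive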
# total CFTR fold 25 µM – recorded beside total CFTR, whose call it bears; fold increase; measured here: primary screen single dose 25 uM; library dosed in µM
# total CFTR fold 10 ug/mL – also measured in total CFTR; calls as there; fold increase; measured here: primary screen 10 ug/mL
# total CFTR viability 25 µM – further read-out of total CFTR, marked with its call; viability, %; measured here: primary viability 25 uM; library dosed in µM;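 0% = killed and 100% = untreated cells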
# total CFTR viability 10 ug/mL – recorded beside total CFTR, whose call it bears; viability, %; measured here: primary viability 10 ug/mL;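 0% = killed and 100% = untreated cells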
# Starred values were filed as active, the others as inactive; i = inactive; / = not tested or not shown; & = joins results of further samples.
SMILES,total CFTR,total CFTR fold 10 ug/mL,total CFTR viability 10 ug/mL,others
c1ccc2cc(OCc3nnnn3C3CC3)ccc2c1,i,1.1,77,
CN(C)CCNc1nc(-c2cccnc2)nc2sc3c(c12)CCC3,i,1,95,
CN(C)S(=O)(=O)c1ccc(=S)n(CN2CCCCC2)c1,i,0.99,100,
COc1ccc(-c2csc3nc(C)nc(N4CCCC(O)C4)c23)cc1OC (centres undefined),i,1,80,
O=C(Nc1nc(-c2ccc(Cl)s2)cs1)C1CC1,i,0.84,91,
O=S(=O)(NCCc1ccccn1)N1CCCCCC1,i,0.99,80,
COc1c2occc2cc2ccc(=O)oc12,i,/,/,total CFTR fold 25 µM=1&0.94;total CFTR viability 25 µM=92&96
O=C(Nc1cc2c(cc1Br)OCCO2)NC1CCCCCC1,i,0.96,99,
N#CC1(c2nc3ccccc3s2)Cc2cc([N+](=O)[O-])ccc2N2CCCCC21 (centres undefined),i,1.2,88,
O=C(CSc1nc2sc3c(c2c(=O)[nH]1)CCCC3)c1ccc[nH]1,i,0.88,94,
CN(Cc1nccn1C(F)F)S(=O)(=O)CCn1nnc2ccccc21,i,1,97,
CN(C(=O)c1cc2c(s1)CCCCCC2)C1CCS(=O)(=O)C1 (centres undefined),i,1.1,89,
C#C[C@]1(O)CC[C@H]2[C@@H]3CCC4=Cc5oncc5C[C@]4(C)[C@H]3CC[C@@]21C,i,/,/,total CFTR fold 25 µM=0.86;total CFTR viability 25 µM=83
Nc1cc(S(N)(=O)=O)ccc1F,i,1.1,98,
CN(C)CCCN1c2ccccc2CCc2ccccc21,i,/,/,total CFTR fold 25 µM=1&1;total CFTR viability 25 µM=84&105

# Looked up by compound from the entries so far:
SMILES,total CFTR,total CFTR fold 10 ug/mL,total CFTR viability 10 ug/mL,others
N#CC1(c2nc3ccccc3s2)Cc2cc([N+](=O)[O-])ccc2N2CCCCC21 (centres undefined),i,1.2,88,
COc1c2occc2cc2ccc(=O)oc12,i,/,/,total CFTR fold 25 µM=1&0.94;total CFTR viability 25 µM=92&96
O=C(Nc1cc2c(cc1Br)OCCO2)NC1CCCCCC1,i,0.96,99,

# New compounds follow:
SMILES,total CFTR,total CFTR fold 10 ug/mL,total CFTR viability 10 ug/mL,others
CC(C)c1nnc(NC(=O)CSc2nnc(NC3CC3)s2)o1,i,1,101,
CCN(CC)CCOCCOC(=O)C1(c2ccccc2)CCCC1,i,/,/,total CFTR fold 25 µM=1.1;total CFTR viability 25 µM=90
CC1CCN(S(=O)(=O)NCc2ccccc2Cl)CC1,i,0.91,94,
O=S(=O)(c1ccc(S(=O)(=O)N2CCc3ccccc32)cc1)C(F)F,i,0.83,82,
CC1CCCC(NC(=O)C2(C)CC2(Cl)Cl)C1 (centres undefined),i,1,92,
Cn1c(C2CC2)nn(CN2CCC(c3nnc4ccccn34)CC2)c1=S,i,1.1,115,
Cc1cc(=O)oc2cc(OCC(=O)NC(C)C3CC3)ccc12 (centres undefined),i,0.92,100,
COC(=O)c1c(C)[nH]c(C(=O)C(C)Sc2nnnn2C(C)(C)C)c1C (centres undefined),i,0.85,84,
Oc1cccc2[nH]ncc12,i,0.96,90,
Cc1ncc([N+](=O)[O-])n1CC(C)O (centres undefined),i,/,/,total CFTR fold 25 µM=0.95&1;total CFTR viability 25 µM=104&91
COCCn1c(=S)[nH]c2ccc(O)cc2c1=O,i,1.1,100,
CC1CCC(NC(=O)COCC(=O)NC2CCC(C)CC2)CC1 (centres undefined),i,0.9,91,
Cn1nnnc1SCc1nnc(C(C)(C)C)o1,i,1.2,99,
Cn1c(=O)c2ccccc2n2c(CN3CCC(O)CC3)nnc12,i,1,82,
COc1cc2c(cc1OC)CN(C(=O)C1(S(=O)(=O)c3ccc(Cl)cc3)CCCC1)CC2,i,0.98,94,
CCOC(=O)C1=C(COC(=O)c2cc(Cl)cc(Cl)c2)NC(=O)NC1C (centres undefined),i,1.1,95,
CCOc1ccc(O)c(C2Nc3ccccc3C(=O)N2CC2CCCO2)c1 (centres undefined),i,1,95,
C=C1/C(=C/C=C2/CCC[C@]3(C)[C@@H]([C@H](C)CCCC(C)C)CC[C@@H]23)C[C@@H](O)C[C@@H]1O,i,/,/,total CFTR fold 25 µM=0.87;total CFTR viability 25 µM=79
CCO/C([O-])=N/c1c[n+](N2CCOCC2)no1,i,/,/,total CFTR fold 25 µM=1.1&1.1;total CFTR viability 25 µM=84&88
CC(=O)N1CCN(Cc2nnc(-c3ccco3)o2)CC1,i,1,103,
O=C1C(=O)N(C2CCCC2)C(=O)N1CC(=O)N(C1CC1)C1CCS(=O)(=O)C1 (centres undefined),i,1.1,103,
COc1cc(-c2nnc(SCc3cc(F)cc4c3OC(c3ccccc3)OC4)o2)cc(OC)c1OC (centres undefined),i,1,107,
O=C(Nc1cc2c(cc1Br)OCCO2)N1CCN(Cc2ccco2)CC1,i,1,89,
CSc1ccc(CN2CCc3cc(S(=O)(=O)N(C)C)ccc32)cc1,i,0.88,79,
CN1C(=O)C(=Cc2cc(Cl)c3c(c2)OCO3)C(=O)N(C)C1=O,i,1.1,100,
NC(=O)CCCCC1CCSS1 (centres undefined),i,/,/,total CFTR fold 25 µM=1.1;total CFTR viability 25 µM=102
O=C1C(=O)N(CN2CCC(O)CC2)c2ccccc21,i,0.98,102,
Cc1cc(C)nc(NS(=O)(=O)c2ccc(N)cc2)n1,i,/,/,total CFTR fold 25 µM=1;total CFTR viability 25 µM=103
NCCOc1cccc(C(F)(F)F)c1,i,0.99,91,
CN(C)C(=O)N1CCCC(C(=O)NC2CCCC2)C1 (centres undefined),i,1.1,102,
CC(Sc1n[nH]c(N)n1)c1nnc(-c2ccccc2)o1 (centres undefined),i,1.1,100,
CNCC1CC1,i,1,92,
Cc1noc(C)c1CN(CC(C)C)c1c(N)n(CC(C)C)c(=O)[nH]c1=O,i,1,100,
Nc1ccn(C2O[C@H](CO)[C@@H](O)[C@@H]2O)c(=O)n1 (some centres undefined),i,/,/,total CFTR fold 25 µM=1.1;total CFTR viability 25 µM=84
CC(C)(C)c1ccc(COC(=O)c2cc(=O)c3ccccc3o2)cc1,i,1.1,115,
Fc1ccc(/C=C/c2nc(=S)[nH][nH]2)cc1,i,0.94,96,
CN1CCN(Cn2nc3c(Cl)cc(Cl)cn3c2=S)CC1,i,1.1,94,
CCCCN(C(=O)CN1C(=O)NC2(CCCCC2C)C1=O)C1CCS(=O)(=O)C1 (centres undefined),i,0.99,103,
CC(C)n1nnnc1SCc1cc(=O)oc2ccc3ccccc3c12,i,1,87,
COc1nc(N)nc2c1ncn2C1O[C@H](CO)[C@@H](O)[C@@H]1O (some centres undefined),i,/,/,total CFTR fold 25 µM=1;total CFTR viability 25 µM=90
Cc1cc(C(=O)COc2ncnc3sccc23)c(C)n1CCC(=O)O,i,0.98,100,
CC1Oc2c(C(=O)OCc3cc(=O)n4ccccc4n3)cccc2C1C (centres undefined),i,0.97,96,
Clc1ccc2c(Oc3ccc4oc5ccccc5c4c3)ccnc2c1,i,1,114,
COC(=O)c1ccc(OCC(=O)c2ccc3c(c2)CCO3)c(OC)c1,i,1,97,
O=C(COC(=O)C1(c2ccccc2)CC1)c1ccc(Br)s1,i,1,82,

# Overlap with the part before: five entries; new compounds follow.
SMILES,total CFTR,total CFTR fold 10 ug/mL,total CFTR viability 10 ug/mL,others
Cc1cc(C(=O)COc2ncnc3sccc23)c(C)n1CCC(=O)O,i,0.98,100,
CC1Oc2c(C(=O)OCc3cc(=O)n4ccccc4n3)cccc2C1C (centres undefined),i,0.97,96,
Clc1ccc2c(Oc3ccc4oc5ccccc5c4c3)ccnc2c1,i,1,114,
COC(=O)c1ccc(OCC(=O)c2ccc3c(c2)CCO3)c(OC)c1,i,1,97,
O=C(COC(=O)C1(c2ccccc2)CC1)c1ccc(Br)s1,i,1,82,
CCc1c(C)sc2nc(SC)n(CCOC)c(=O)c12,i,0.9,100,
Cc1ccnc2nc(C(=O)OC3CCCCC3=O)nn12 (centres undefined),i,1,98,
Cc1cc(C(C)NC(=O)C(C)NC(=O)C23CC4CC(CC(C4)C2)C3)c(C)s1 (centres undefined),i,1,94,
N#CC1(NC(=O)CN2C(=O)NC3(CCCc4ccccc43)C2=O)CCCC1 (centres undefined),i,1.1,99,
C=C(C)CN1C(=O)NC(C)(c2cc(F)ccc2F)C1=O (centres undefined),i,1,90,
COc1ccc(/C(O)=C2\C(=O)C(=O)N(CCN3CCOCC3)C2c2cc(OC)c(OC)c(OC)c2)cc1C (centres undefined),i,1,107,
CN(CC(=O)N1CCCC1)C(=O)COc1ccc2c3c(c(=O)oc2c1)CCC3,i,1.1,101,
Cc1ccc(S(=O)(=O)N2CCCN(S(=O)(=O)c3cccc(S(N)(=O)=O)c3)CC2)cc1,i,0.88,94,
CC(=O)Nc1cnc(NC(C)=O)s1,i,1,88,
CCN(CC)S(=O)(=O)c1cc(C(=O)OCc2cc(C)on2)n(C)c1,i,0.94,90,
O=[N+]([O-])c1ccc(OCc2cc(-c3ccco3)on2)cc1,i,1.1,101,
FC(F)(F)Oc1ccccc1CNc1ccc2nnnn2n1,i,0.95,80,
Cc1c(OCC(F)(F)F)ccnc1CS(=O)c1nc2ccccc2[nH]1 (centres undefined),i,/,/,total CFTR fold 25 µM=0.73&0.94;total CFTR viability 25 µM=74&94
COC(=O)C(NS(C)(=O)=O)C(C)C (centres undefined),i,0.94,82,
Cc1ccc(S(=O)(=O)NC(=O)NN2CC3CCCC3C2)cc1 (centres undefined),i,/,/,total CFTR fold 25 µM=1.1&0.95;total CFTR viability 25 µM=86&90
CCOC(=O)c1c(C)[nH]c(C)c1C(=O)COC(=O)c1cc(S(=O)(=O)N2CCCC2)cn1C,i,0.86,83,
CC(C)C(CNS(=O)(=O)CCn1cnc2ccccc21)N1CCOCC1 (centres undefined),i,0.95,104,
COc1cc(OC)cc(-c2cc(/C=C/c3ccc(Cl)c(Cl)c3)c(C#N)c3nc4ccccc4n23)c1,i,1.1,94,
CC(C)(C)NC(=O)CN1CCN(C(=O)C2(C)CC2(Cl)Cl)CC1 (centres undefined),i,0.93,75,
CN(Cn1ncc2ccccc2c1=O)C1CCc2ccccc21 (centres undefined),i,1.1,94,
CCCCN(C(=O)COC1CCCCC1)c1c(N)n(CCC)c(=O)[nH]c1=O,i,0.97,104,
O=C1Nc2cc(SCc3ccccc3)ccc2C1=O,i,1.1,95,
C/C(=C\C(=O)OCCCCCCCCC(=O)O)C[C@@H]1OC[C@H](C[C@@H]2O[C@H]2[C@@H](C)[C@H](C)O)[C@@H](O)[C@H]1O,i,/,/,total CFTR fold 25 µM=1.1;total CFTR viability 25 µM=108
O=C(O)c1cnc(OCC(F)(F)F)c(Cl)c1,i,1,89,

# Among those listed so far, these have a nitro group on carbon.
SMILES,total CFTR,total CFTR fold 10 ug/mL,total CFTR viability 10 ug/mL,others
N#CC1(c2nc3ccccc3s2)Cc2cc([N+](=O)[O-])ccc2N2CCCCC21 (centres undefined),i,1.2,88,
Cc1ncc([N+](=O)[O-])n1CC(C)O (centres undefined),i,/,/,total CFTR fold 25 µM=0.95&1;total CFTR viability 25 µM=104&91
O=[N+]([O-])c1ccc(OCc2cc(-c3ccco3)on2)cc1,i,1.1,101,

# Bioassay records as filed in PubChem BioAssay.

# An excerpt; the hit share may differ from the screen's.
